Screens: PubChem BioAssay, National Center for Advancing Translational Sciences (NCATS)
Lassa entry inh: inhibitors of Lassa virus binding or cell entry. Lassa virus pseudotype entry inhibition, cell reporter; control for the full effect not named in the record. Potency, µM (series often up to 37.9 µM), for the others: at the top dose activity change, negative = inhibition, usual class: inhibitors. 1.2% of 300,000 active; active means well fitted inhibition curve with a large enough effect; inconclusive means small, poorly fitted or top-dose-only effect, or effect the other way; inactive means flat fitted curve, though single readings scatter; tested in HEK293 cells; further: on the % scale 0 is the no-effect control and ±100 the full control effect; nearly all actives have a fitted effect of over 50% in size; luciferase read-out
Marburg entry inh: inhibitors of Marburg virus binding or cell entry; Marburg virus pseudotyped entry inhibition, cell reporter; control for the full effect not named in the record; about a third of the inactives were read at about 46 µM; Potency, µM (titrated, usually from 37.8 µM), for the others: at the highest dose activity change, negative = inhibition, actives largely listed as inhibitors; 1.8% of 300,000 active; active = well fitted inhibition curve with a large enough effect; inconclusive = small, poorly fitted or top-dose-only effect, or effect the other way; inactive = flat fitted curve, though single readings scatter; tested in HEK293 cells; about a fifth of its hits are not listed in these tables; further: on the % scale 0 is the no-effect control and ±100 the full control effect; luciferase read-out
Cruzain Triton: inhibitors of Trypanosoma cruzi cruzain with detergent. P25779. purified cruzain, Z-FR-AMC fluorescence, 0.01% Triton. Potency, µM, for inactives: max response, negative = inhibition, hits mostly inhibitors. 0.43% of 200,000 active; active means well fitted curve in the direction sought with a large enough effect; inconclusive means small, poorly fitted or top-dose-only effect, or another doubt; inactive means no such curve, though single readings can be large; an effect the other way counts as inactive or inconclusive;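 further: plate controls were neutral wells for no effect and buffer without enzyme for full effect; nearly all actives have a fitted effect of over 40% in size; top concentration of the series not given in the record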
Target sequence (P25779 123-467 limits assumed): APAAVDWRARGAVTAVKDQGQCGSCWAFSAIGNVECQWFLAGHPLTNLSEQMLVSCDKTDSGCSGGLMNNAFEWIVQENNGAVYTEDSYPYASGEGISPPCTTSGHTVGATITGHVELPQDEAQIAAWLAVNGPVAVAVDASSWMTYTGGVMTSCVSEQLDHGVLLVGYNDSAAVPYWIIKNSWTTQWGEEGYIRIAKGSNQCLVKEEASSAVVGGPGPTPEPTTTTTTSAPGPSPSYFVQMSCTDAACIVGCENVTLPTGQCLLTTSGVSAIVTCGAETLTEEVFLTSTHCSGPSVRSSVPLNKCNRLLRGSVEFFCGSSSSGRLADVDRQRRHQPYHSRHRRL
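Compounds were screened in titration against cruzain (1.5 nM) with 0.01% Triton X-100 to counter colloidal aggregation. Activity was the AMC fluorescence increase over 60 s after adding 2 uM Z-FR-AMC at pH 5.5.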
SARS PLpro yeast: blocks SARS-CoV papain-like protease in a yeast assay; S. cerevisiae expressing SARS-CoV PLpro, growth rescue; control for the full effect not named in the record; Potency, µM (highest dose often 32.9 µM), without a hit: top-dose activity, positive = growth rescue; 0.19% of 330,000 active; AID 485353; further: 0% is about no effect; nearly all actives have a fitted effect of over 55% in size; growth read by luminescence after 48 h
NS1 inh: inhibitors of influenza NS1 protein function | S. cerevisiae slowed by influenza A NS1, growth recovery by OD600 | Potency, µM (top dose mostly 46.1 µM), for the others: top-dose activity, positive = more growth | 0.4% of 270,000 active | AID 2326; further: actives are rising curves; nearly all actives have a fitted effect of over 50% in size
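Compounds were scored for reversing the slow growth caused by influenza A NS1 in S. cerevisiae, measured by optical density at 600 nm. Assay medium contained 2% galactose at pH 6.0; NS1-free yeast of the same strain were the positive control.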
RE007 growth inh: less growth of the S. pombe RE007 Vpr strain | S. pombe RE007 Vpr strain, BacTiter-Glo ATP luminescence, 24 h; control for the full effect not named in the record | Potency, µM (doses to about 92.2 µM), inactives show at the highest dose activity change, negative = less growth | 0.21% of 360,000 active; active = well fitted falling curve with a large enough effect; inconclusive = small, poorly fitted or top-dose-only effect; inactive = no such curve, though single readings can be large or run the other way;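 further: on the % scale 0 is the no-effect control and ±100 the full control effect; nearly all actives have a fitted effect of over 50% in size; the assay follows cell death caused by Vpr and the record does not say whether a fall means rescue or toxicity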
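Fission yeast RE007 carrying one integrated HIV-1 vpr copy, seeded at OD 0.01 in PMG+AL medium with 23 nL pinned compound. Grown 24 h at 30 degrees; viability read by BacTiter-Glo luminescence after 5 min.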
Cruzain noTriton: inhibitors of Trypanosoma cruzi cruzain without detergent | P25779 | purified cruzain, Z-FR-AMC fluorescence, no detergent | Potency, µM, inactives show max response, negative = inhibition, most hits filed as inhibitors | 2.3% of 200,000 active | AID 1476; active means well fitted curve in the direction sought with a large enough effect; inconclusive means small, poorly fitted or top-dose-only effect, or another doubt; inactive means no such curve, though single readings can be large; an effect the other way counts as inactive or inconclusive;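 further: plate controls were enzyme without inhibitor for no effect and buffer without enzyme for full effect; nearly all actives have a fitted effect of over 40% in size; top concentration of the series not given in the record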
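Purified cruzain at 1.5 nM, pre-incubated 15 min with compound at room temperature in 100 mM sodium acetate pH 5.5, 5 mM DTT, 0.00005% Triton X-100. Reaction started with 2 uM Z-FR-AMC; AMC fluorescence increase over 60 s gives rate.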
StopGo reporter: FMDV 2A StopGo reporter, luciferase signal; human cells with a luciferase reporter of 2A StopGo recoding; control for the full effect not named in the record; 1.2% of 410,000 active; Potency, µM (doses to about 57.9 µM), for the others: top-dose signal change, negative = less light; active = well fitted falling curve with a large enough effect; inconclusive = small, poorly fitted or top-dose-only effect; inactive = no such curve, though single readings can be large or run the other way; tested in HEK293T cells; further: on the % scale 0 is the no-effect control and ±100 the full control effect; nearly all actives have a fitted effect of over 45% in size; luciferase light after 4 h
The depositor's hits bear a star; ? = inconclusive; nt = not tested or not shown; & = joins results of further samples; [ ] = another dose, or the depositor's remark. Unless noted, the call rests on the fitted dose curve; in most records, active means well fitted rising curve with a large enough effect; inconclusive means small, poorly fitted or top-dose-only effect; inactive means no such curve, though single readings can be large or run the other way. Potency means the concentration at half of the fitted maximal effect.

SMILES	Lassa entry inh	Marburg entry inh	Cruzain Triton	SARS PLpro yeast	NS1 inh	RE007 growth inh	Cruzain noTriton	StopGo reporter
Cc1nc2cc(-c3ccc(Br)cc3)[nH]n2c(=O)c1Cl	nt	nt	nt	-6%	15%	0%	nt	39%[activator]
COc1ccc(CNC(=O)CN(Cc2ccc(OC)cc2)C(=O)CCC(=O)Nc2ccccn2)cc1	-16%[46.1 µM]	10%[46.1 µM]	nt	0%	-5%	1%	nt	-8%
COc1ccc(OC)c(-n2cnc3cc(C(=O)NCCCN4CCOCC4)ccc32)c1	8%	-14%	-3.5%	5%	-7%	0%	-3%	-19%
COC(=O)c1cc(Nc2cc(C)nc3ncnn23)cc(C(=O)OC)c1	-16%	18%	-4.4%	3%	?	-10%	3%	-23%
S=C(NCCCc1ccccc1)Nc1ccc(Cl)cc1	-27%	5%	-15%	-97%	-24%	?	-4%	1%
CN(C)S(=O)(=O)c1cccc(C(=O)Nc2ccccc2)c1	-3%	2%[46.1 µM]	nt	0%	3%	5%	nt	-3%
Cc1cc(C)c(NC(=O)C2CSCCS2)c(C)c1 (centres undefined)	12%	?	0.6%	-18%	0%	-2%	3%	43%[activator]
CCC(C)c1ccc(OCC(=O)Nc2ccc(Cl)cn2)cc1 (centres undefined)	0%	?	-2.9%	-2%	6%	7%[3.69 µM]	-1%	-21%
CCCN1C(=O)/C(=C/c2c(NCCCOC(C)C)nc3c(C)cccn3c2=O)SC1=S	0%	0%	-0.7%	3%	0%	4%	-2%	-15%
CCOc1ccc(C(=O)Nc2ccc(CN3CCOCC3)cc2)cc1Cl	nt	nt	nt	-11%	-8%	-3%	nt	-11%
CCN(CC)S(=O)(=O)c1ccc(/C=C/C(=O)N(c2ccccn2)C2CCCCC2)cc1	nt	15%[46.1 µM]	nt	3%	nt	3%	nt	-16%
Cc1cc(O)c(C(C)C)cc1N=Cc1cc([N+](=O)[O-])ccc1O	nt	-3%	nt	-6%	-51%	-17%	nt	-12%
Cc1ccc(-c2nn(-c3ccccc3)cc2C(=O)Nc2ccc(C(=O)O)cc2)cc1	19%	0%[46.1 µM]	nt	-1%	nt	-20%	nt	35%[activator]
CCOc1ccccc1NC(=O)C1=C(C)NC(=O)NC1c1cccc(OC)c1OC (centres undefined)	-2%	5%	3.9%	2%	-4%	14%	7%	12%
Cc1ccc2cc(C)c(SCC#N)nc2c1	4%	1%[46.1 µM]	-14%	2%	-3%	-30%	-9%	16%
CC1CCC2(CC1)NC(=O)N(CC(=O)c1ccc[nH]1)C2=O (centres undefined)	2%	13%[46.1 µM]	-5.6%	-5%	-4%	-7%	1%	-15%
CCOC(=O)c1cc2c(ccn2C)n1Cc1cc(C)ccc1C	1%	-18%	-3.5%	-23%	9%	-7%	-6%	0%
COCCn1c(CN2CCN(C)CC2)nc2c1c(=O)n(C)c(=O)n2C	nt	6%	1.3%	-2%	6%	-8%	17%	-4%
N#Cc1c(C(F)(F)F)cc(-c2ccc(Cl)c(Cl)c2)nc1SCCN1CCOCC1	37%[14.3 µM]	?	-6.6%	-7%	3%	-10%	9%	-14%
O=C(CC1C(=O)NCCN1CC1CCCCC1)NCc1cc(F)ccc1F (centres undefined)	-24%	?	nt	-3%	-2%	-23%	nt	-10%

2 neighbouring records already listed, for reference:
SMILES	Lassa entry inh	Marburg entry inh	Cruzain Triton	SARS PLpro yeast	NS1 inh	RE007 growth inh	Cruzain noTriton	StopGo reporter
N#Cc1c(C(F)(F)F)cc(-c2ccc(Cl)c(Cl)c2)nc1SCCN1CCOCC1	37%[14.3 µM]	?	-6.6%	-7%	3%	-10%	9%	-14%
O=C(CC1C(=O)NCCN1CC1CCCCC1)NCc1cc(F)ccc1F (centres undefined)	-24%	?	nt	-3%	-2%	-23%	nt	-10%

(continued)
SMILES	Lassa entry inh	Marburg entry inh	Cruzain Triton	SARS PLpro yeast	NS1 inh	RE007 growth inh	Cruzain noTriton	StopGo reporter
CCc1ccc(CNC(=O)c2nn(-c3ccc(C)cc3)c(=O)c3c2c2ccccc2n3C)cc1	3%[46.1 µM]	6%[46.1 µM]	-1.2%	nt	nt	nt	?	-3%
CCc1cccc2c(C(=O)CN3C(=O)NC4(CCCCCC4)C3=O)c[nH]c12	?	?	nt	0%	nt	5%	nt	36%[activator]
COC(=O)c1ccccc1Sc1snnc1C	nt	-17%[46.1 µM]	nt	1%	4%	-5%	nt	-7%
COc1cccc(/C=C2\Oc3cc(OCC(=O)N4CCCC4)ccc3C2=O)c1OC	nt	nt	nt	11%	2%	0%	nt	-1%
C=CCc1cccc(/C=N/NC(=O)C[n+]2ccccc2)c1O	nt	nt	nt	5%	-4%	10%	nt	-10%
Cc1cccc(CNC(=O)CN2C(=O)CSc3c2c(C)nn3-c2ccccc2)c1	4%[46.1 µM]	nt	-2.6%	nt	nt	nt	2%	13%
CCC(=O)c1cn(CC(=O)Nc2ccc(OC)cc2)c2ccccc12	nt	nt	nt	1%	8%	-1%	nt	1%
CCOC(=O)c1c(C)nc(-c2ccccc2)nc1N	?	?	-5.5%	1%	-9%	?	-4%	56%[activator]
Cc1csc(Nc2nc(N)c(C(=O)Nc3ccccc3)o2)n1	nt	nt	nt	0%	-4%	6%	nt	135%[activator]
COc1ccc(N2CCN(c3oc(-c4ccc(OC)c(OC)c4)nc3C#N)CC2)cc1	20%	-10%	-5.2%	8%	-6%	2%	?	?
O=C(Nc1ccccc1C(=O)NCCCn1ccnc1)c1ccccc1	6%	8%&8%	-0.1%	-1%	-6%	7%	2%	2%
CC1CCN(CCCNS(=O)(=O)c2ccc3c(c2)CCN3C(=O)C2CC2)CC1	nt	nt	nt	-4%	-6%	5%	nt	17%
Cc1ccc(/C=N/Nc2nnc(Cl)c3ccccc23)cc1	?	10µM*	-10%	-50%	-13%	-20%	7%	?
CCOC(=O)c1ccc(N2Cc3ccccc3C2=NC(=O)c2cccs2)cc1	10µM*	?	-3.4%	18%	3%	-11%	26%	8%
COc1ccccc1CNC(=O)c1cc2ccccc2o1	13%[46.1 µM]	20%[46.1 µM]	nt	-10%	-24%	-10%	nt	17%
CCCCn1c(N)c(N(CCOC)C(=O)C2CCN(S(=O)(=O)c3ccc(C)c(C)c3)CC2)c(=O)[nH]c1=O	-4%	9%	nt	-1%	nt	11%	nt	-15%
COc1nc(-c2ccccc2)ccc1-c1noc(-c2cccnc2)n1	32%	0%	-4.1%	14%	-10%	-7%	?	3%
COC(=O)c1ccccc1NC(=S)NC(=O)c1ccc2ccccc2c1	-8%	?	-5.1%	27%	6%	-11%	-17%	-19%
COc1ccccc1C(=O)NCCC(=O)N(Cc1ccco1)Cc1cccs1	-8%	1%	nt	0%	-12%	12%	nt	0%
O=C1CCC(=O)O1	nt	nt	2.9%	-9%	nt	10%	1%	-8%
CCN(C(=O)COC(=O)c1cccs1)c1c(N)n(Cc2ccccc2)c(=O)[nH]c1=O	6%	1%	nt	1%	nt	2%	nt	-7%
COc1cc(/C=C2\NC(=O)NC2=O)cc(Br)c1OC	-23%	?	nt	2%	2%	-4%	nt	-15%
CCOC(=O)CSc1nc(COc2ccccc2)nc2ccccc12	?	26%[46.1 µM]	nt	-11%	-29%	-12%	nt	23%
CSC1=N/C(=C\c2ccc(F)cc2)C(=O)S1	?	?	-1.5%	18%	-20%	-17%	-4%	-16%
CCc1noc(C)c1C(=O)Nc1cc(S(=O)(=O)N2CCOCC2)ccc1OC(C)C	?	12%	nt	27%	nt	0%	nt	-1%
CCOc1ccc(CN(C)C(=O)Cc2c[nH]c3ccccc23)cc1	-22%[46.1 µM]	-18%[46.1 µM]	nt	0%	-37%	5%	nt	12%
COc1ccccc1CNc1ccc(N2CCCCC2)cc1	?	5.2µM*	2.1%	-15%	-8%	-11%	4%	nt
CCOc1cc(NC(=O)c2ccco2)c(OCC)cc1NC(=O)Cc1ccc(OC)c(OC)c1	-8%	-26%&-26%	-10%	-2%	-10%	-1%	?	-30%
O=C(Cn1c(=O)n(CC(=O)N2CCCCC2)c(=O)c2sccc21)NCc1ccccc1	nt	nt	nt	-1%	3%	2%	nt	-5%
COc1ccccc1C1Nc2ccccc2NC2=C1C(=O)CC(C)(C)C2 (centres undefined)	0%	?	nt	4%	2%	5%	nt	-9%
CC(C)NC(=O)CSc1nnc(-c2ccc(S(=O)(=O)N3CCCC3)cc2)n1CC1CCCO1 (centres undefined)	7%	0%	3.4%	-2%	0%	-14%	-4%	-8%
Cc1nn(-c2ccccc2)c(N2CCCC2)c1/C=N/n1cnc2scc(-c3ccccc3)c2c1=O	?	-6%&-6%	-0.8%	1%	-30%	9%	-3%	?
CC(C)(C)c1ccc(C2=CSC3=NCCN23)cc1	?	?	nt	-14%	-9%	-8%	nt	-14%
O=C(Nc1cccc(NC(=O)c2cccs2)c1)c1ccc2c(c1)OCCO2	11%	8%	nt	0%	1%	3%	nt	54%[activator]
C/C(CCC1CC(C)OC1=O)=N/Nc1nc(-c2ccccc2)cs1 (centres undefined)	1%	-8%	-15%	-1%	9%	190%	-9%	12%
CCCCn1c(O)c(C(C)=Nc2cccc(C(=O)O)c2)c(=O)[nH]c1=O	3%	-3%	-13%	3%	0%	-19%	-12%	-15%
CCCCSc1nc2sc3c(c2c(=O)[nH]1)CC(C)(CC)OC3 (centres undefined)	-5%	-7%	nt	1%	3%	13%	nt	-12%
C(=N\N1CCOCC1)/c1nc(-c2ccccc2)n2ccccc12	1%	?	nt	-1%	nt	15%	nt	4%
CCCC[C@H]1COCCS(=O)(=O)N1Cc1ccc(Br)cc1	nt	nt	nt	-20%	-101%	19%	nt	-8%
Cn1cc(S(=O)(=O)Nc2cccc(F)c2)c(=O)n(C)c1=O	nt	nt	-7.4%	0%	6%	15%	-26%	-7%
Cc1ccc2oc(C(=O)Nc3ccc(S(=O)(=O)Nc4nc(C)cc(C)n4)cc3)cc(=O)c2c1	28%[46.1 µM]	0%[46.1 µM]	-13%	nt	nt	nt	0%	17%
